Autofluor counter = counter-screen for toxin protease inhibitors: compound fluorescence. compound autofluorescence counterscreen, microsphere flow cytometry; active compounds read high. fluorescence intensity (test concentration not listed). 3.1% of 360,000 active;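 active means at least 3 SD above the mean of all compounds, about 16000 in these data; inconclusive means too few beads counted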;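 further: 100 nL of 1 mM stock went into each well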
Sa ugtP lethal = growth inhibition of S. aureus ugtP deletion strain. 0.54% of 330,000 active. S. aureus RN4220 ugtP deletion, OD600 growth, 16 h; some inactives read as strong as hits. growth inhibition, % (test concentration not listed);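 active means z-score under -3 and OD600 up to 0.15 on both plates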;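 further: plate controls were untreated wells for no effect and antibiotic for full effect; wells of about 80 µL received 100 nL stock; the first replicate is given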
PrP UTR inh = suppresses PrP 5' UTR mRNA reporter expression; cell-based PrP 5' UTR mRNA reporter, plate reader; inhibition, % (concentration not given with the values); 0.35% of 340,000 active;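 active means every replicate at 50% or more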;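 further: 0 = median of the neutral control wells; tested in H4 reporter cells; numbers are from one replicate; inactives centre near -14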
BJeLR lethal = BJeLR cell viability loss; inhibition, % (no concentration beside the values); BJeLR (HRASV12) viability, CellTiter-Glo ATP luminescence, 48 h; reference of the scale not given here; AID 1554; 0.17% of 300,000 active;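 active means replicate mean above 50%; inconclusive means above 50% but judged a plate artefact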;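 further: 50 nL library stock added to about 25 µL; numbers are from one replicate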
RN4220 kill = S. aureus RN4220 growth inhibition; 0.33% of 330,000 active; OD600, 16 h; inhibition, % (test concentration not listed); AID 1259311;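 active means z-score of -3 or lower and OD600 up to 0.18 on both plates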;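 further: plate controls were untreated cells for no effect and reference antibiotic for full effect; stock transfer was 100 nL into about 80 µL; one replicate is shown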
Mtb hypoxia inh = Mtb hypoxia fluorescent reporter inhibition | 0.1% of 300,000 active | AID 1159583 | fluorescence inhibition, % (test concentration not listed) | M. tuberculosis hypoxia-regulated fluorescent reporter, fluorescence;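 active means 35 to 45% if threefold the growth effect, above 45% if 1.5-fold the growth effect; inactive means the rest, general growth blockers included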;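 further: wells of about 50 µL received 100 nL stock; 0% = vehicle wells and 100% = reference inhibitor wells; whole bacteria with a GFP reporter of the hypoxia response; strong numbers were not always called active; many hits fall short of the cut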
Mtb hypoxia inh growth = also measured in Mtb hypoxia inh; calls as there; growth inhibition, %; measured here: M. tuberculosis growth (absorbance);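 0% = vehicle and 100% = reference antibiotic; read after six days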
* hit, by the source's call; ? = inconclusive; . = no result given; & = joins results of further samples.

smiles	Autofluor counter	Sa ugtP lethal	PrP UTR inh	BJeLR lethal	RN4220 kill	Mtb hypoxia inh	Mtb hypoxia inh growth
CSc1ccccc1OCc1cc(C(=O)NC(C)Cn2cncn2)no1 (stereo not drawn)	5469	6.3	-22.1	-0.6	4.7	8.8	5.4
COc1ccc(OC)c(CCNC(=O)Cn2nc(C)c3c(C)n(-c4ccc(C)cc4)nc3c2=O)c1	5985	4.5	-6.2	23.9	2.6	-0.2	-1.3
CC(C)c1onc(C(=O)N2CCN(Cc3ccccc3)CC2)c1[N+](=O)[O-]	6187	9.1	-23.9	-0.9	1.7	.	.
COc1cc2c(C#CCCCO)c(-c3ccc(C#N)cc3)oc(=O)c2cc1OC	3680	-3.7	-9.3	.	1.9	6.9	13.0
COC(=O)c1ccc(NC(=O)CSCc2ccc(C)cc2)cc1	22818*	7.0	-4.5	8.8	-1.1	-0.5	-1.7
C[C@@]12C(=O)N(CCO)CC(=O)N1[C@H](/C=C/c1ccccc1)[C@@H]1C(=O)N(c3ccccc3)C(=O)[C@@H]12	4070	.	-50.7	-3.4	.	.	.
N#C/C(=C\c1ccccc1[N+](=O)[O-])C(=O)NC1CCCCC1	3039	12.2	-16.8	4.2	2.9	-3.1	0.2
CC1(C)CC(=O)C(C2(O)C(=O)NC(=O)NC2=O)=C(O)C1	12618	4.2	-14.7	-4.5	1.1	4.0	3.2
Cc1cc(N2CCC(C)CC2)nc(-c2ccccc2O)n1	4665	7.5	-3.4	8.8	-5.8	6.2	-11.9
COc1cccc(-c2nc3ccc(C(=O)NC(C)Cc4cccnc4)cc3o2)c1 (stereo not drawn)	3478	11.8	-46.8	-3.4	-0.7	-11.1	3.0
CCCCN(C(=O)CSCC(=O)Nc1ccc(C)cc1)c1c(N)n(CCCC)c(=O)[nH]c1=O	5686	1.3	1.5	1.9	0.6	4.0	7.9
COc1ccc(NCc2nnc(SCC(=O)NCc3ccccc3)n2-c2ccccc2OC)cc1	2948	-2.4	-13.8	-0.5	-14.8	.	.
O=C(NCCc1ccccc1)C1CCC(CNS(=O)(=O)c2cccc3cccnc23)CC1 (stereo not drawn)	4227	2.1	-28.6	3.3	2.3	13.9	11.1
CCOC(=O)NN=C1CC(C)CC(C)(C)C1 (stereo not drawn)	.	2.0	.	.	2.5	7.9	4.7
O=C(Nc1cccc(C(=O)O)c1)/C(=C\c1ccc2c(c1)OCO2)NC(=O)c1ccc(Br)cc1	3613	4.3	0.9	-11.3	3.9	6.7	-0.5
Cc1ccc(SCC(=O)NC(=O)NC(C)C)c(C)c1	3936	6.0	-3.1	-2.7	5.8	2.3	4.8
CCCNS(=O)(=O)c1ccc(OCC(=O)NCCCOC)cc1	8572	-7.0	-19.6	0.5	3.4	-91.8	-10.4
O=C(Nc1cccc2c1[nH]c1ccccc12)C(F)(F)F	2535	-11.2	-6.7	5.1	-0.4	.	.
COCCc1ncc(CN2CCCCC2C(=O)Nc2ccc(Oc3ccccc3)nc2)cn1 (stereo not drawn)	6117	0.6	-12.6	-4.8	0.1	3.1	2.4
COc1cc2ccccc2cc1C(=O)Nc1cccnc1	3294	3.1	-48.4	2.3	14.6	8.4	9.3
CCOC(=O)C1CCCN(Cc2c(C(=O)N3CCCCC3)nc3c(C)cccn23)C1 (stereo not drawn)	4423	-72.2	-21.6	5.6	12.3	11.4	7.6
CNC(=S)NN=C(C)c1ccc(C(C)(C)C)cc1	.	12.6	.	.	1.0	8.5	4.8
CCC(=O)N1CCN(c2ccc(NC(=O)c3ccc4c(c3)OCO4)cc2)CC1	4365	1.2	-25.5	-9.2	7.2	4.2	13.5
O=[N+]([O-])c1cccc(C=NNC2CCS(=O)(=O)C2)c1 (stereo not drawn)	.	0.9	.	.	0.5	1.0	4.0
CCNc1nnc(SCC(=O)c2c(N)n(C3CC3)c(=O)[nH]c2=O)s1	6285	4.8	-14.8	.	1.9	4.9	-3.2
COc1ccc(CCN(C)CC(=O)Nc2ccc(F)c(Cl)c2)cc1OC	4263	2.5	-14.3	-8.6	7.3	-2.5	-4.3
COc1cc2c(cc1OC)CN(C(=O)CCOc1ccccc1C)CC2	5118	14.0	-18.1	-17.6	16.0	8.8	8.1
Cn1cc(/C=C2/SC(=O)N(c3ccccc3)C2=O)c2ccccc21	2356	-3.1	-69.7	14.6	-3.5	1.3	-1.7
Cc1cccc(NC(=O)C2SC(=Nc3c(C)cccc3C)C(C(=O)N3CCOCC3)=C2N)c1 (stereo not drawn)	2376	-2.3	-28.4	-2.3	4.5	10.5	11.5
Cc1ccc2nc(SC(C)C(=O)NCc3ccc4c(c3)OCO4)[nH]c2c1 (stereo not drawn)	2474	0.8	-26.0	2.0	0.1	-0.8	-0.5
Cc1cc(C(=O)O)c(CSCc2cc(C(=O)O)oc2C)o1	10727	0.0	-21.7	11.0	0.3	21.4	12.9
COc1ccc(-c2cc(C(=O)N/N=C/c3cccnc3)c3ccccc3n2)c(OC)c1	4627	.	-32.8	1.3	.	.	.
CC(C)Cn1nc(NS(=O)(=O)c2ccccc2)c2cc3ccccc3nc21	?	-11.4	-11.6	3.7	13.6	15.1	2.3
CC(=O)Oc1cccc(C(=O)Nc2ccccc2C(=O)N2CCCC2)c1	5922	3.7	-9.1	0.7	0.5	0.5	1.4
COc1ccccc1NC(=O)Cn1nc(Cc2cccnc2)c2ccccc2c1=O	4641	-2.4	-6.5	-2.4	3.5	11.7	5.9
OC(c1ccccc1)(c1ccccc1)c1ccn[nH]1	4486	7.5	-49.2	6.5	7.5	2.4	3.1
O=S(=O)(NCc1ccccn1)c1ccc(Cl)c(C(F)(F)F)c1	3994	0.0	-18.7	6.8	1.1	-1.9	-1.5
CC(=O)Nc1ccc(NC(=O)C(C)O/N=C/c2cccc([N+](=O)[O-])c2)cc1 (stereo not drawn)	9936	.	-2.7	-4.7	.	.	.
Cc1noc(C)c1C(=O)Nc1ccc(F)cc1	2035	16.3	4.4	5.4	7.0	12.9	2.5
COc1cccc(N2CCN(C(=O)c3oc4ccccc4c3NC(=O)CCc3cc(OC)no3)CC2)c1	5870	6.7	-9.5	-6.3	6.0	2.0	1.0
Cc1cc(NN=Cc2ccccc2Cl)nc(NCc2ccccc2)n1	.	18.3	.	.	13.7	-2.8	-4.8
C[C@H](NC(=O)C1CC(=O)N(c2ccc3c(c2)OCO3)C1)C(=O)NCc1ccco1 (stereo partly drawn)	4354	7.0	-0.8	4.1	3.7	8.3	3.8
O=S(=O)(c1ccc2c(c1)nc(COc1ccc(Cl)cc1)n2CC1CCCO1)N1CCOCC1 (stereo not drawn)	6452	8.8	-4.6	-4.6	0.8	8.3	6.5
CC(=O)Nc1ccc(S(=O)(=O)N[C@@H](C)C(=O)OCC(=O)c2ccc[nH]2)cc1	3375	-7.9	-36.4	.	6.9	19.4	13.0
Cc1c(Cl)cccc1NC(=O)NCc1ccc(C)n1C	3642	2.2	-16.9	-1.2	4.6	15.7	10.6
Cc1[nH]c(=S)n(CC2CCCO2)c1C (stereo not drawn)	3924	8.3	-7.6	-10.8	3.7	2.1	-1.5
CC1=CC(=NS(=O)(=O)c2ccccc2)C(C(C)C)=CC1=O	.	-3.2	.	.	2.5	-9.0	-3.0
CC(Sc1ccccc1F)C(=O)Nc1ccc2c(c1)OCCO2 (stereo not drawn)	8060	2.0	-56.0	.	1.6	-3.4	6.1
Cc1cc(C)n(CCCNC(=O)C2CCC(=O)N(CCc3ccc(Cl)cc3)C2)n1 (stereo not drawn)	4641	3.3	-12.7	13.8	1.3	2.8	-4.1
COC(=O)c1c(C)oc(C)c1S(=O)(=O)NCc1ccc(Cl)cc1Cl	4418	10.1	-23.6	-4.6	9.8	7.5	3.5
COc1ccc(CCNC(=O)c2ccc(OCc3c(C)noc3C)cc2)cc1OC	8787	2.9	14.9	.	-0.9	-2.1	2.0
CCOC(=O)CN1C(=O)CCSc2ccc(Cl)cc21	4395	-4.6	-13.4	1.7	-5.4	3.8	1.5
CCN1C(=O)C2C(c3ccc(C)cc3)N3C(=O)N(c4cccc(C)c4)C(=O)[C@@]3(Cc3ccccc3)C2C1=O (stereo partly drawn)	.	9.6	.	.	9.5	4.3	8.2
CN1C(=O)N(C)C(=O)C2(Cc3c(nc4ccccn4c3=O)N3CCc4ccccc4C32)C1=O (stereo not drawn)	3902	-6.1	-12.1	-13.6	0.3	1.7	0.9
Fc1ccc(C2CCNCC2COc2ccc3c(c2)OCO3)cc1 (stereo not drawn)	3025	-24.9&-20.1&-18.7&1.9	14.0	8.8	-5.9&-4.7&-2.0&-1.8	13.2&4.9&-3.1&10.4	8.2&-0.2&-0.6&-1.5
COc1ccc(CC(=O)N/N=C/c2ccc(-c3ccc(F)cc3)o2)cc1OC	5639	.	-36.7	1.2	.	.	.
COc1ccc2c(c1)C1=NN(/C(C)=C/C(C)=O)C(c3ccc(F)cc3)C1CC2 (stereo not drawn)	15484	-3.4	-23.1	-3.8	12.9	-0.2	-0.3
NC(=O)C1CCN(C(=O)c2ccco2)CC1	7867	3.1	8.5	-8.2	3.2	0.5	4.6
CCOC(=O)C1(c2ccccc2)CCN(CC(=O)c2ccc(NC(C)=O)cc2)CC1	3168	5.9	-2.4	.	0.5	8.5	6.1
CS(=O)(=O)N(Cc1ccc(Cl)cc1)c1ccc(C(=O)NCC2CCCO2)cc1 (stereo not drawn)	3232	-2.5	-30.2	6.0	8.1	-2.6	2.0

Individual results from the list:
Autofluor counter, Cc1cc(C)n(CCCNC(=O)C2CCC(=O)N(CCc3ccc(Cl)cc3)C2)n1 (stereo not drawn) = 4641
Mtb hypoxia inh growth, CS(=O)(=O)N(Cc1ccc(Cl)cc1)c1ccc(C(=O)NCC2CCCO2)cc1 (stereo not drawn) = 2.0

Following part.
smiles	Autofluor counter	Sa ugtP lethal	PrP UTR inh	BJeLR lethal	RN4220 kill	Mtb hypoxia inh	Mtb hypoxia inh growth
CC(OC(=O)c1cc(S(=O)(=O)N2CCOCC2)ccc1F)C(=O)NC1CCCCC1C (stereo not drawn)	5727	-9.1	-2.0	7.2	-6.0	-4.1	-6.1
CSCCC(NC(=O)c1ccc(C)o1)C(=O)O (stereo not drawn)	2895	-0.6	-14.8	-6.7	0.3	.	.
COc1ccc(Cn2nnnc2C(c2cccnc2)N2CCN(c3ccc(O)cc3)CC2)cc1 (stereo not drawn)	6171	0.4	-19.7	-3.1	3.6	3.2	7.9
COc1ccc(NS(=O)(=O)c2csc(C(N)=O)c2)cc1	3472	7.8	-1.7	-3.7	1.3	-0.1	0.4
Cc1ccc(C(=O)c2no[n+]([O-])c2C(=O)c2ccc(C)cc2)cc1	2529	4.2	-5.1	7.5	5.7	7.3	8.7

Compound profiles, as listed above. Screens in order: Autofluor counter, Sa ugtP lethal, PrP UTR inh, BJeLR lethal, RN4220 kill, Mtb hypoxia inh, Mtb hypoxia inh growth
`Cc1ccc(C(=O)c2no[n+]([O-])c2C(=O)c2ccc(C)cc2)cc1` is listed as 2529, 4.2, -5.1, 7.5, 5.7, 7.3, 8.7
`COc1ccc(NS(=O)(=O)c2csc(C(N)=O)c2)cc1` is listed as 3472, 7.8, -1.7, -3.7, 1.3, -0.1, 0.4

High-throughput results from PubChem.

This is a random part of the collection; 4% or so of the library scored in one or more.
